Screens: PubChem BioAssay, National Center for Advancing Translational Sciences (NCATS)
Cruzain noTriton – blocks cruzain activity in detergent-free assay. P25779. purified cruzain, Z-FR-AMC fluorescence, no detergent. Potency, µM, for inactives: max response, negative = inhibition, usual class: inhibitors. 2.3% of 200,000 active;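 also: plate controls were enzyme without inhibitor for no effect and buffer without enzyme for full effect; nearly all actives have a fitted effect of over 40% in size; top concentration of the series not given in the record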
Target sequence (P25779 123-467 limits assumed): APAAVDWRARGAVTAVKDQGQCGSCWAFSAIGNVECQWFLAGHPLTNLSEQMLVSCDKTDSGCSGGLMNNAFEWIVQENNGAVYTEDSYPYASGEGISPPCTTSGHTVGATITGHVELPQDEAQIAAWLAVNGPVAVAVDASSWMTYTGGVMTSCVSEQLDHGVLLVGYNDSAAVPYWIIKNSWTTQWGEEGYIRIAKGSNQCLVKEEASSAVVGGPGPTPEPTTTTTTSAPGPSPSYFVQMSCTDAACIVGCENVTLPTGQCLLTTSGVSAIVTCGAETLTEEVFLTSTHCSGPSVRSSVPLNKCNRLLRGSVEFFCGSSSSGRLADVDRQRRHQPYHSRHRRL
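Purified cruzain at 1.5 nM, pre-incubated 15 min with compound at room temperature in 100 mM sodium acetate pH 5.5, 5 mM DTT, 0.00005% Triton X-100. Reaction started with 2 uM Z-FR-AMC; AMC fluorescence increase over 60 s gives rate.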
RE007 growth inh – less growth of the S. pombe RE007 Vpr strain | Potency, µM (top dose mostly 92.2 µM), inactives show at the top dose activity change, negative = less growth | S. pombe RE007 Vpr strain, BacTiter-Glo ATP luminescence, 24 h; control for the full effect not named in the record | 0.21% of 360,000 active; active = well fitted falling curve with a large enough effect; inconclusive = small, poorly fitted or top-dose-only effect; inactive = no such curve, though single readings can be large or run the other way;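 also: % is scaled to controls: 0 for no effect and ±100 for the full control effect; nearly all actives have a fitted effect of over 50% in size; the assay follows cell death caused by Vpr and the record does not say whether a fall means rescue or toxicity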
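Fission yeast strain RE007, carrying one chromosomally integrated HIV-1 vpr copy, was seeded at OD 0.01 in PMG+AL medium with 23 nL pinned compound. After 24 h at 30 °C and 99% humidity, viability was read by BacTiter-Glo luminescence.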
NS1 function inh – inhibitors of influenza NS1 protein function. S. cerevisiae slowed by influenza A NS1, growth recovery by OD600. 0.4% of 270,000 active. AID 2326. Potency, µM (series often up to 46.1 µM), for inactives: at the highest dose activity, positive = more growth; active means well fitted rising curve with a large enough effect; inconclusive means small, poorly fitted or top-dose-only effect; inactive means no such curve, though single readings can be large or run the other way; also: nearly all actives have a fitted effect of over 50% in size
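In this qHTS, NS1 from influenza A is expressed in budding yeast, where it slows growth. Cells are switched from glucose to 2% galactose medium (pH 6.0, -URA), treated with compound, and growth recovery is read at OD600.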
MARV entry inh – blocks Marburg virus binding to or entry into cells | Marburg virus pseudotyped entry inhibition, cell reporter; control for the full effect not named in the record; about a third of the inactives were read at about 46 µM | Potency, µM (doses to about 37.8 µM), for inactives: at the highest dose activity change, negative = inhibition, usual class: inhibitors | 1.8% of 300,000 active; active = well fitted inhibition curve with a large enough effect; inconclusive = small, poorly fitted or top-dose-only effect, or effect the other way; inactive = flat fitted curve, though single readings scatter; tested in HEK293 cells; about a fifth of its hits are not listed in these tables; also: % is scaled to controls: 0 for no effect and ±100 for the full control effect; luciferase read-out
Cruzain inh Det – cruzain (T. cruzi) inhibition with detergent; P25779; purified cruzain, Z-FR-AMC fluorescence, 0.01% Triton; Potency, µM, for inactives: max response, negative = inhibition, most hits filed as inhibitors; 0.43% of 200,000 active;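 also: plate controls were neutral wells for no effect and buffer without enzyme for full effect; nearly all actives have a fitted effect of over 40% in size; top concentration of the series not given in the record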
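Steps: dispense cruzain (1.5 nM final) in acetate buffer pH 5.5 with DTT and 0.01% Triton X-100; pin-transfer compounds; incubate 15 min RT; add Z-FR-AMC (2 uM final); read fluorescence every 30 s, using the 60 s intensity change.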
LASV entry inh – inhibitors of Lassa virus binding or cell entry. Lassa virus pseudotype entry inhibition, cell reporter; control for the full effect not named in the record. Potency, µM (highest dose often 37.9 µM), inactives show at the highest dose activity change, negative = inhibition, most hits filed as inhibitors. 1.2% of 300,000 active; active means well fitted inhibition curve with a large enough effect; inconclusive means small, poorly fitted or top-dose-only effect, or effect the other way; inactive means flat fitted curve, though single readings scatter; tested in HEK293 cells; also: % is scaled to controls: 0 for no effect and ±100 for the full control effect; nearly all actives have a fitted effect of over 50% in size; luciferase read-out
SARS PLpro yeast – inhibitors of SARS-CoV papain-like protease in yeast; 0.19% of 330,000 active; Potency, µM (series often up to 32.9 µM), for the others: at the highest dose activity, positive = growth rescue; S. cerevisiae expressing SARS-CoV PLpro, growth rescue; control for the full effect not named in the record; active means well fitted rising curve with a large enough effect; inconclusive means small, poorly fitted or top-dose-only effect; inactive means no such curve, though single readings can be large or run the other way; also: 0% is about no effect; nearly all actives have a fitted effect of over 55% in size; growth read by luminescence after 48 h
StopGo reporter – lowers the luciferase signal of an FMDV 2A StopGo reporter; human cells with a luciferase reporter of 2A StopGo recoding; control for the full effect not named in the record; Potency, µM (highest dose often 57.9 µM), for the others: at the highest dose signal change, negative = less light; 1.2% of 410,000 active; AID 1159524; active = well fitted falling curve with a large enough effect; inconclusive = small, poorly fitted or top-dose-only effect; inactive = no such curve, though single readings can be large or run the other way; tested in HEK293T cells; also: % is scaled to controls: 0 for no effect and ±100 for the full control effect; nearly all actives have a fitted effect of over 45% in size; luciferase light after 4 h
An asterisk follows results filed as active; & = joins results of further samples; [ ] = dose if it differs, or a comment. Unless noted, calls follow the shape of the dose curve; as a rule, active = well fitted curve in the direction sought with a large enough effect; inconclusive = small, poorly fitted or top-dose-only effect, or another doubt; inactive = no such curve, though single readings can be large; an effect the other way counts as inactive or inconclusive. Potency is read from the fitted curve at half-maximal effect.

Screening CC(=O)c1cc(F)c(N2CCN(C(=O)COc3ccccc3F)CC2)cc1C returned Cruzain noTriton 14%, RE007 growth inh 11%, NS1 function inh -2%, MARV entry inh -14%, Cruzain inh Det -6.5%, LASV entry inh -10%, SARS PLpro yeast -3% and StopGo reporter -28%.
`COc1ccccc1CC(=O)N(CCC#N)CCC#N` gave Cruzain noTriton -5%, RE007 growth inh 0%, NS1 function inh 0%, MARV entry inh 2%, Cruzain inh Det -1.6%, LASV entry inh 4%, SARS PLpro yeast -4% and StopGo reporter -24%.
`Cc1ccc(S(=O)(=O)NCc2ccc(C(=O)N3CCN(c4ccccn4)CC3)cc2)cc1` gave Cruzain noTriton 1%, RE007 growth inh -14%, NS1 function inh -20%, MARV entry inh inconclusive, Cruzain inh Det 1.2%, LASV entry inh -24%, SARS PLpro yeast -5% and StopGo reporter inconclusive.
Screening CC(C)c1ccc(C2CC(=O)c3cnc(NC(=O)c4ccco4)nc3C2)cc1 (stereo not drawn) returned RE007 growth inh -9%, NS1 function inh 10%, SARS PLpro yeast -14% and StopGo reporter 8%.
Screening CCc1nc2nc(C)c(NS(=O)(=O)c3ccc(CC(C)C)cc3)c(=O)n2[nH]1 returned RE007 growth inh 1%, NS1 function inh 10%, MARV entry inh 4%[46.1 µM], LASV entry inh 5%, SARS PLpro yeast -2% and StopGo reporter -7%.
`CCOC(=O)C1CCN(C(=O)/C=C/c2ccccc2)CC1` gave RE007 growth inh 29%, MARV entry inh inconclusive, LASV entry inh 6%, SARS PLpro yeast 3% and StopGo reporter 77%[activator].
For O=C(CS(=O)(=O)c1nc(-c2ccc(Cl)cc2)cn1-c1ccccc1)Nc1ccc(F)cc1F the results were Cruzain noTriton 25µM*, MARV entry inh 12%[46.1 µM], Cruzain inh Det -22%, LASV entry inh -5%[46.1 µM] and StopGo reporter 22%.
O=C(NCc1cccc(C(F)(F)F)c1)C1CCN(c2ncccn2)CC1 was read as Cruzain noTriton -5%, RE007 growth inh -20%, NS1 function inh -3%, MARV entry inh 16%, Cruzain inh Det -0.3%, LASV entry inh 4%, SARS PLpro yeast -6% and StopGo reporter -6%.
For O=C(NC1CCCCC1)C1(c2ccccc2)CC1(Cl)Cl (stereo not drawn) the results were Cruzain noTriton 1%, RE007 growth inh 5%, NS1 function inh -15%, MARV entry inh -14%, Cruzain inh Det 0.0%, LASV entry inh -23%, SARS PLpro yeast 1% and StopGo reporter -13%.
`C(=N\n1cnnc1)/c1ccc(OC2CSC2)cc1` gave Cruzain noTriton -8%, RE007 growth inh 3%, NS1 function inh -20%, MARV entry inh 19%, Cruzain inh Det 0.5%, LASV entry inh 6% and SARS PLpro yeast -4%.
`CC(C)Nc1nc(Cl)nc(NCCOc2ccccc2)n1` gave Cruzain noTriton -1%, RE007 growth inh 7%, NS1 function inh -2%, MARV entry inh 14%[46.1 µM], Cruzain inh Det -5.9%, LASV entry inh inconclusive, SARS PLpro yeast 7% and StopGo reporter 27%.
`Cc1cc(C)cc(N(C(=O)c2sc(C)nc2C)C(C(=O)NCc2ccco2)c2ccccc2)c1` (stereo not drawn) gave Cruzain noTriton inconclusive, RE007 growth inh 4%, NS1 function inh -5%, MARV entry inh inconclusive, Cruzain inh Det -3.0%, LASV entry inh inconclusive and SARS PLpro yeast 2%.
O=C1c2ccccc2C(=O)N1CCSc1nc2ccccc2c(=O)n1CCCN1CCOCC1 was read as RE007 growth inh -3%, MARV entry inh 14%[46.1 µM], LASV entry inh 13%, SARS PLpro yeast -1% and StopGo reporter -25%.
For CC(C)c1ccc(OCC(=O)N2CCc3ccccc3C2)cc1 the results were RE007 growth inh 9%, NS1 function inh -19%, MARV entry inh 7%[46.1 µM], LASV entry inh 0%[46.1 µM], SARS PLpro yeast 1% and StopGo reporter 12%.
For Cc1c(Cl)cccc1N1C(=O)C2ON(c3ccccc3)C(c3cccnc3)C2C1=O (stereo not drawn) the results were Cruzain noTriton 14%, RE007 growth inh 0%, NS1 function inh 0%, MARV entry inh 2%, Cruzain inh Det 3.3%, LASV entry inh -3%, SARS PLpro yeast -7% and StopGo reporter 2%.
Cn1nc(C(=O)N2CCN(c3ccccc3F)CC2)c2c1-c1ccccc1SC2 was read as Cruzain noTriton -4%, MARV entry inh inconclusive, Cruzain inh Det -6.5%, LASV entry inh 0%[46.1 µM] and StopGo reporter -13%.
Screening CCC(=O)Oc1ccc(C2NC(=O)c3ccccc3O2)cc1OC (stereo not drawn) returned RE007 growth inh 33%, NS1 function inh 7%, MARV entry inh 1%, LASV entry inh -24%, SARS PLpro yeast -3% and StopGo reporter inconclusive.
For CCc1ccc(N(CC(=O)NCC2CCCO2)C(=O)CCC(=O)Nc2nccs2)cc1 (stereo not drawn) the results were RE007 growth inh 5%, NS1 function inh 1%, MARV entry inh inconclusive, LASV entry inh 30%[46.1 µM], SARS PLpro yeast 3% and StopGo reporter 24%.
For CCC(=O)N1CCN(c2ccc(NC(=O)c3ccc(-c4ccccc4)cc3)cc2)CC1 the results were Cruzain noTriton -11%, NS1 function inh 6%, MARV entry inh -3%, Cruzain inh Det 3.5% and SARS PLpro yeast 10%.
`COC(C[C@H](O)[C@@H](C)[C@H](O)COCc1ccccc1)OC` gave RE007 growth inh -6%, NS1 function inh 8%, SARS PLpro yeast 0% and StopGo reporter -5%.
`Cc1cccc(NC(=O)CNC(=O)CN2C(=O)NC3(CCc4ccccc43)C2=O)c1C` (stereo not drawn) gave RE007 growth inh 1%, MARV entry inh -4%, LASV entry inh -7%, SARS PLpro yeast 4% and StopGo reporter -17%.
Screening COc1cccc(NC(=O)C(NCC2CCCCC2)c2ccccc2)c1 (stereo not drawn) returned Cruzain noTriton 2%, RE007 growth inh 7%, NS1 function inh -17%, MARV entry inh inconclusive, Cruzain inh Det -2.0%, LASV entry inh 13%, SARS PLpro yeast -3% and StopGo reporter -16%.
For O=C(NCc1ccccc1)c1cnc(Cl)c(Cl)c1 the results were RE007 growth inh 1%, NS1 function inh 1%, MARV entry inh 11%[46.1 µM], LASV entry inh -15%, SARS PLpro yeast -3% and StopGo reporter 44%[activator].
Screening CCn1c(CSc2nccn2C)nc2cc(C(=O)O)ccc21 returned Cruzain noTriton -21%, RE007 growth inh 9%, NS1 function inh inconclusive, MARV entry inh 3%, Cruzain inh Det 2.7%, LASV entry inh 2%, SARS PLpro yeast 7% and StopGo reporter -21%.
Screening C/C(=N\NC(=O)c1ccc2c(c1)OCO2)c1ccc2c(c1)OCO2 returned RE007 growth inh -1%, MARV entry inh 16%[46.1 µM], LASV entry inh inconclusive, SARS PLpro yeast -3% and StopGo reporter 6%.
`O=C/C=C/c1ccccc1` gave Cruzain noTriton -1%&-2%&17%, RE007 growth inh 8%, Cruzain inh Det -0.7%&1.9%&-2.3%, SARS PLpro yeast 1% and StopGo reporter -4%.
Screening O=C(O)c1c2c(nc3ccc(S(=O)(=O)N4CCC(C(=O)NCc5ccc(Cl)cc5)CC4)cc13)CCCC2 returned Cruzain noTriton 5%, RE007 growth inh 0%, NS1 function inh 6%, MARV entry inh 18%&18%[46.1 µM], Cruzain inh Det -9.8%, LASV entry inh -8%[46.1 µM], SARS PLpro yeast -8% and StopGo reporter 11%&6%.
COc1ccc(OC)c(NC(=O)c2cnn(-c3ccccc3)c2C)c1 was read as RE007 growth inh -12%, NS1 function inh -69%, MARV entry inh -23%[46.1 µM], LASV entry inh -5%[46.1 µM], SARS PLpro yeast -21% and StopGo reporter 4%.
For N#Cc1ccccc1NC(=O)COC(=O)c1ccc2c(c1)OCCO2 the results were Cruzain noTriton 0%, RE007 growth inh 8%, NS1 function inh -12%, MARV entry inh 9%, Cruzain inh Det -1.5%, LASV entry inh 8%, SARS PLpro yeast -2% and StopGo reporter 36%[activator].
`Cc1ccc(-c2cc(C(=O)N3CCN(c4ncccn4)CC3)c3ccccc3n2)cc1` gave Cruzain noTriton inconclusive, RE007 growth inh -2%, NS1 function inh -88%, MARV entry inh inconclusive, Cruzain inh Det -11%, LASV entry inh -8%, SARS PLpro yeast -9% and StopGo reporter -17%.
`Cc1nc2sc(C(=O)N(C)c3ccccc3)c(NC(=O)c3ccccc3Cl)c2c(C)c1C` gave Cruzain noTriton -1%, MARV entry inh 12%[46.1 µM], Cruzain inh Det 0.2%, LASV entry inh inconclusive and StopGo reporter -21%.
For Cc1ccc(N(CC(=O)Nc2ccc3c(c2)OCCO3)S(=O)(=O)c2c(C)noc2C)cc1 the results were Cruzain noTriton -1%, RE007 growth inh 8%, NS1 function inh -45%, MARV entry inh -16%, Cruzain inh Det 0.9%, LASV entry inh -17%, SARS PLpro yeast inconclusive and StopGo reporter inconclusive.
For CC(C)[C@H](NC(N)=O)C(=O)Nc1ccc(OCc2ccccc2)cc1 the results were RE007 growth inh -5%, MARV entry inh -1%[46.1 µM], LASV entry inh 12%, SARS PLpro yeast -1% and StopGo reporter 7%.
Screening CN1CCN(c2ccc(S(=O)(=O)N3CCCCC3)cc2NC(=O)Cc2ccccc2F)CC1 returned Cruzain noTriton -15%, RE007 growth inh 10%, NS1 function inh 3%, MARV entry inh inconclusive, Cruzain inh Det 0.7%, LASV entry inh 1%, SARS PLpro yeast 6% and StopGo reporter -12%.
For CCOC(=O)c1nnn(-c2nonc2N)c1-c1cccc2ccccc12 the results were Cruzain noTriton -1%, RE007 growth inh 23%, NS1 function inh -69%, MARV entry inh inconclusive, Cruzain inh Det -2.9%, LASV entry inh inconclusive, SARS PLpro yeast 3% and StopGo reporter -21%.
Screening CCOC(=O)N1CCC(N2CCN(c3ccccc3)CC2)CC1 returned RE007 growth inh 5%, NS1 function inh 3%, MARV entry inh 12%, LASV entry inh -16%, SARS PLpro yeast -8% and StopGo reporter -17%.
For CCN1CCN(c2ccc(S(=O)(=O)N3CCCCC3)cc2NC(=O)COc2ccc(Cl)c(C)c2)CC1 the results were RE007 growth inh -11%, NS1 function inh 23%, MARV entry inh inconclusive, LASV entry inh -2%[46.1 µM], SARS PLpro yeast 1% and StopGo reporter -13%.
For CSc1ccc(C(=O)C2CCCN(C(=O)c3ccc4c(c3)OCO4)C2)cc1 (stereo not drawn) the results were RE007 growth inh 12%, NS1 function inh -31%, SARS PLpro yeast 0% and StopGo reporter -1%.
